# HPGD block = HPGD (human) dehydrogenase inhibition; Potency, µM, for inactives: top-dose activity change, negative = inhibition, hits mostly inhibitors; P15428; purified HPGD, NADH fluorescence kinetic, PGE2 substrate; 150,000 tested, 4.3% active; active = well fitted inhibition curve with a large enough effect (not every such curve was filed as active); inconclusive = small, poorly fitted or top-dose-only effect, or another doubt; inactive = no such curve, though single readings can be large or run the other way;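 further: top concentration of the series not given in the record; plate controls included wells without enzyme; inactives centre near -10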
# Target sequence (P15428 whole entry, looked up): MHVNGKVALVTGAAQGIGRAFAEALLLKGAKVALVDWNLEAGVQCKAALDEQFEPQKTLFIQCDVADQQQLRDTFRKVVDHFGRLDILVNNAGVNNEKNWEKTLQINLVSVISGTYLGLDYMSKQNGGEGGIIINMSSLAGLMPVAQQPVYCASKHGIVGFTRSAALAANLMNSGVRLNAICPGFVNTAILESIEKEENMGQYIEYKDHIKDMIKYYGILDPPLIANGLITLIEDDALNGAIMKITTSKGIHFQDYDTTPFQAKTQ
#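 NADH formation kinetics: reaction with 30 uM PGE2 and 1 mM NAD+ (final), 20 nM enzyme, Tris-HCl pH 8 with Tween 20, after 15 min compound preincubation at room temperature. Fluorescence change, last versus first of five reads.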
# Starred values were filed as active, the others as inactive; ? = inconclusive. On the % scale 0 is the no-effect control and ±100 the full control effect; potency means the concentration at half of the fitted maximal effect. Only part of the results is shown; the hit share may differ from the screen's.
smiles | HPGD block
O=C(CNC(=S)N(CCCN1CCOCC1)Cc1cccs1)NC1CCCCCCC1 | -6%
Cc1cccc(N(CC(O)CON=C2c3ccccc3-c3ccccc32)S(C)(=O)=O)c1 (stereo unspecified) | -14%
COc1ccc(OCc2n[nH]c(=S)o2)cc1 | ?
COC(=O)CSc1nnc(C2COc3ccccc3O2)n1-c1ccccc1 (stereo unspecified) | 6%
COc1cc(C2C(C(C)=O)=C(O)C(=O)N2c2ccc(C)cc2)ccc1O (stereo unspecified) | -12%
CCOC(=O)c1c(C)nc2c(C#N)cnn2c1C | ?
COc1ccc(-c2cc(C(=O)NCC(C)C)no2)cc1 | ?
CC(C)C(c1nnnn1CC1CCCO1)N1CCN(Cc2ccc3c(c2)OCO3)CC1 (stereo unspecified) | 1%
Cc1csc(N(C(=O)Cc2ccccc2F)c2ccccc2)n1 | -1%
Cc1ccc(C)c(S(=O)(=O)N2CCC(c3nc4c(nnn4Cc4ccc(F)cc4)c(=O)[nH]3)CC2)c1 | 13µM*
COc1ccc(-c2ccc(=O)[nH]n2)cc1 | -5%
CCOc1ccccc1C(=O)Nc1ccccc1O | -8%
CCN1C(=O)CC(NCc2ccc3c(c2)OCO3)C1=O (stereo unspecified) | -7%
Cc1cc(C)nc(N2CCC(CNC(=O)CCc3ccccc3)CC2)n1 | ?
C[N+]1(CCOS(=O)C23CC4CC(CC(C4)C2)C3)CCOCC1 (stereo unspecified) | -11%
CC(=O)c1cccc(NC(=O)C(Sc2ncnc3ccccc23)c2ccccc2)c1 (stereo unspecified) | ?
O=C(CSc1cn(CCNC(=O)c2cccs2)c2ccccc12)NC1CCCC1 | 20µM*
Cc1csc(=Nc2ccc(S(=O)(=O)N3CCOCC3)cc2)n1Cc1ccco1 | -19%
CCCCC[C@H](O)/C=C/[C@@H]1[C@H]2C/C(=C/CCCC(=O)O)O[C@H]2C[C@H]1O | -15%
COc1cc(C)nc(NS(=O)(=O)c2ccccc2)n1 | -1%

smiles | HPGD block
COCCCNC(=O)C1CCCN(C(=O)Nc2ccc(OC)cc2)C1 (stereo unspecified) | -4%
C=CCSc1nnc(Cc2c(C)[nH]c3ccccc23)o1 | -11%
CC(C)C(C(=O)Nc1cccnc1)N1C(=O)c2ccccc2C1=O (stereo unspecified) | 1%
COC(=O)c1[nH]c2cc(OC)c(OC)cc2c1NC(=O)CN1CCN(Cc2ccccc2)CC1 | ?
O=C(Cc1ccccc1)NCCC1=CCCCC1 | ?
COc1ccc(Nc2nc(-c3ccccc3)c3ccccc3n2)cc1 | -4%
Cc1ccc(-n2nc3cc(C)c(NC(=O)c4cccnc4)cc3n2)cc1 | -4%
CC(=O)c1cc(C#N)c(SCC(=O)OC(C)(C)C)nc1C | -27%
O=C(COc1ccc(/C=N/NC(=O)c2ccccc2O)cc1)Nc1ccc([N+](=O)[O-])cc1 | -3%
CCOC(=O)C(C)(C)N(Cc1ccccc1C)S(=O)(=O)c1ccc(Cl)c([N+](=O)[O-])c1 | -5%
O=C(c1cccc(OC(F)F)c1)N1CCN(c2ncccn2)CC1 | -17%
Cc1nn(-c2ccccc2)c2c1C(=O)NC(=O)C(C)(C)C2 | -1%
NC(=S)c1cc2ccc(O)cc2oc1=O | ?
O=[N+]([O-])c1cccc(C=Nc2cc3c(cc2Br)OCCO3)c1 | -7%
CCOC(=O)N1CCN(c2cc(N3CCN(CC)CC3)c(F)cc2[N+](=O)[O-])CC1C (stereo unspecified) | 0%
CCn1c(=O)cc(SCC(=O)Nc2cccnc2)c2ccccc21 | -15%
OC1CCN(c2c3c(nc4cc(-c5cccc(F)c5)nn24)CCCC3)CC1 | ?
c1ccc2oc(C3=NCCN3)cc2c1 | ?
COc1ccc(CC(=O)Nc2cccc(-c3nnc(-c4ccco4)o3)c2)cc1 | -9%
CCn1c(SCC(=O)OC)nnc1-c1ccncc1 | -7%

# Next section; it opens with the 6 that closed the last part.
smiles | HPGD block
CCOC(=O)N1CCN(c2cc(N3CCN(CC)CC3)c(F)cc2[N+](=O)[O-])CC1C (stereo unspecified) | 0%
CCn1c(=O)cc(SCC(=O)Nc2cccnc2)c2ccccc21 | -15%
OC1CCN(c2c3c(nc4cc(-c5cccc(F)c5)nn24)CCCC3)CC1 | ?
c1ccc2oc(C3=NCCN3)cc2c1 | ?
COc1ccc(CC(=O)Nc2cccc(-c3nnc(-c4ccco4)o3)c2)cc1 | -9%
CCn1c(SCC(=O)OC)nnc1-c1ccncc1 | -7%
FC(F)(F)c1cc(-c2ccccc2)nc(NCC2CCCO2)n1 (stereo unspecified) | ?
CC1CCc2c(C(=O)Nc3ccc(OC(F)(F)F)cc3)csc2C1 (stereo unspecified) | -11%
NC(=O)/C(=N\OC(=O)c1ccco1)c1nc(-c2ccc(Br)cc2)cs1 | 13µM*
C=CCNC(=O)C1CCN(S(=O)(=O)c2ccc(Br)cc2)CC1 | -10%
Cc1ccc(C(=O)OCC(=O)Nc2ncc(Cl)cc2Cl)cc1NC(=O)c1ccco1 | -4%
CCn1c(COc2ccccc2)nc2ccccc21 | 0%
O=C1CCC[C@@H]2CC(N3CCCCC3)C[C@@H]3CCN1[C@H]23 (stereo partly specified) | -2%
COc1ccccc1N1CCN(C(c2ccccn2)c2nnnn2C2CCCCC2)CC1 (stereo unspecified) | -1%
COc1ccc(N2CCN(c3nc(Cl)nc(Nc4ccc(F)cc4)n3)CC2)cc1 | -5%
Cn1cc(Cl)c(C(=O)NC2CCCCCC2)n1 | -14%
Cc1cc(C)c2nc(SCCC#N)nc(C)c2c1 | -14%
CN(Cc1ccc(C(C)(C)C)cc1)Cc1cccc2ccccc12 | -5%
O=c1[nH][nH]c(-c2ccccc2O)c1C(C[N+](=O)[O-])c1ccc(Br)cc1 (stereo unspecified) | -6%
C=CCNC(=S)Nc1cccc(NC(=S)NCC=C)c1 | -2%
O=[N+]([O-])c1ccc(N/N=C/c2cn(Cc3ccc(F)cc3)c3ccccc23)nc1 | -21%
Cc1ccc2cc(C(c3nnnn3C3CCCC3)N3CCN(c4ccccc4)CC3)c(=O)[nH]c2c1 (stereo unspecified) | -9%
Cc1nc2c(-c3ccc(F)cc3)c(C)nn2c(C)c1CCC(=O)NCc1ccco1 | -10%
COc1cc2c(cc1OC)[C@@H]1CC(=O)[C@@H](CC(C)C)CN1CC2 | ?
COc1ccc(/C=C(/C#N)c2cccnc2)cc1OC | -29%
CCc1ccc(C(=O)N2CCCC2)s1 | 16µM*

smiles | HPGD block
COc1ccccc1N1CCN(C(=O)c2cccc3c(=O)c(C)c(-c4ccccc4)oc23)CC1 | -3%
CCN(CC)c1ccc2c(Cl)c(Br)c(=O)oc2c1 | -18%
COC(=O)c1ccc(COc2cccc3c2CCN(Cc2cccc(C)c2)C3=O)o1 | -11%
Cc1ccc(/C=N\NC(=O)c2cc([N+](=O)[O-])cc([N+](=O)[O-])c2)o1 | -12%
COc1ccc(CC(=O)Nc2c3c(nn2-c2cccc(C)c2C)CS(=O)(=O)C3)cc1 | -10%
C(#CCN1CCOCC1)COCCCOC(c1ccccc1)c1ccccc1 | -4%
CC(C)C(=O)Nc1cccc(NC(=O)CCN2C(=O)c3ccccc3S2(=O)=O)c1 | -11%
Cc1c(CN(C)C(=O)c2ccc(Br)o2)cnn1C | -7%
CCOc1ccc2nc(N/C(N)=N/C(=S)Nc3cccc(C)c3)nc(C)c2c1 | -17%
CCOC(=O)Cc1csc(NC(=O)CSc2nnnn2-c2ccc(CC)cc2)n1 | -8%
CC(O)c1nc2ccccc2n1C1CCCCC1 (stereo unspecified) | -8%
CC1=CC(=O)N(c2cccc(C(F)(F)F)c2)C1c1ccc(Cl)cc1 (stereo unspecified) | -14%
Brc1ccc(Sc2cnc3ccccc3n2)cc1 | -13%
CCOC(=O)N1CCN(c2cccc(C)c2C)CC1 | -10%
C[C@@H](NC(=O)c1coc(=O)c(Br)c1)c1ccccc1 | ?
CCCCOc1[nH]c2nc(-c3ccco3)n(Cc3ccco3)c(=N)c2c1C#N | -22%
CCCCN1C(=O)N(C)C2C1N(C)C(=O)N2CCCC (stereo unspecified) | -10%
CCCCCCCCCCCCCCCCCCOC[C@@H](O)COP(=O)([O-])OCC[N+](C)(C)C | -5%
Cc1cccc(OCC(=O)Nc2cccc(C(=O)Nc3ccccc3C(=O)O)c2)c1 | ?
COc1ccc(CCNC2CC(=O)N(CCc3ccccc3)C2=O)cc1OC (stereo unspecified) | -12%

# Shown with values ahead of the structure: part of the list above.
HPGD block	SMILES
?	Cc1cccc(OCC(=O)Nc2cccc(C(=O)Nc3ccccc3C(=O)O)c2)c1
-22%	CCCCOc1[nH]c2nc(-c3ccco3)n(Cc3ccco3)c(=N)c2c1C#N

# Remaining list, next part.
Compound | HPGD block
O=C(Nc1ccc2c(c1)OCO2)N1CCN(c2cccc(C(F)(F)F)c2)CC1 | -14%
COc1ccccc1C1C=C(c2ccc(Cl)cc2)Nc2nc(NS(C)(=O)=O)nn21 (stereo unspecified) | ?
C=CCN1C=C2C(=O)C(C)(OC(=O)CC)C(=O)C=C2C=C1CCCC (stereo unspecified) | -8%
CC(C)c1ccc(NC(=O)C(c2ccccc2)N2CC(=O)Nc3ccccc32)cc1 (stereo unspecified) | -12%
CCC(Oc1ccccc1)C(=O)NCc1cccnc1 (stereo unspecified) | -17%
Cc1cccc(N(C(=O)c2cnc3n(c2=O)CCS3)C2CCCCC2)c1 | -22%
Cc1cccc(C2(c3cccc(C)c3)OC(=O)c3ccccc32)c1 | -7%
O=C(O)CC(NC(=S)NCc1ccccc1)C(=O)O (stereo unspecified) | -1%
Cc1ccc(C)c(OC(=O)c2ccncc2)c1 | -13%
CCNS(=O)(=O)c1ccc(NC(=O)c2cncc(Br)c2)cc1 | -6%
C(=N\Nc1nc2ccccc2s1)/c1ccc2c(c1)OCO2 | -20%
CCCCCCCC(O)CC(CC1CCCCC1)C(=O)NN (stereo unspecified) | -12%
O=C(c1cc2ccccc2oc1=O)N(c1ccccc1)C1C=CS(=O)(=O)C1 (stereo unspecified) | -14%
CN(C)c1ccc(NC(N)=S)cc1 | -8%
CCOC(=O)c1ccc(NC(=O)NC2CCN(CC(=O)NCc3ccc4c(c3)OCO4)CC2)cc1 | -4%
Cc1ccnc2c(N3C(=O)C4C5c6ccccc6C(c6ccccc65)C4C3=O)cccc12 (stereo unspecified) | -10%
CCCOc1ccc(C2C(C#N)=C(N)Oc3nc[nH]c(=O)c32)cc1OC (stereo unspecified) | -2%
O=C(NCc1ccco1)C1CCN(Cc2ccc(F)cc2)CC1 | -3%
C=CCNC(=S)NNC(=O)c1ccc(OCC)cc1 | -15%
CCN(CC)S(=O)(=O)c1csc(C(=O)NC2CCCCC2)c1 | -11%
CC(C)(Nc1ccccc1)C(=O)c1ccccc1 | -5%
Cc1cccc(NC(=O)CN(C)S(=O)(=O)c2ccc(Cl)cc2)n1 | -10%
CCOc1ccc(S(=O)(=O)n2ccnc2)c2ccccc12 | -6%
COc1ccc(CSc2nncn2N)cc1[N+](=O)[O-] | -15%
CCOC(=O)c1cnc(-n2nc(C)cc2C)nc1Nc1ccc(N(C)C)cc1 | -19%

Compound | HPGD block
Cc1c(NP(=O)(Oc2ccccc2F)Oc2ccccc2F)c(=O)n(-c2ccccc2)n1C | -3%
CCCCSc1nc2c(cc1C#N)CCC2 | -13%
Nn1c(-c2ccccn2)nnc1-c1ccccn1 | 1%
O=c1c2ccccc2nc(SCc2nnc(-c3ccccc3)o2)n1-c1ccc(F)cc1F | -22%
CCC(C)Nc1ccc(NC(C)CC)cc1 (stereo unspecified) | -13%
O=[N+]([O-])c1ccc(-c2nc(-c3cccs3)c(-c3cccs3)[nH]2)cc1 | -22%
Cc1ccc(N2C(=O)CC(NCc3ccc4c(c3)OCO4)C2=O)cc1Cl (stereo unspecified) | -5%
CCOC(=O)c1cccc(S(=O)(=O)N(CCO)Cc2cc3cc(OC)ccc3[nH]c2=O)c1 | -20%
CCOC(=O)C1=C(N)N(c2ccccc2)C2=C(C(=O)CCC2)C1c1cccnc1 (stereo unspecified) | -6%
COC(=O)c1sccc1NC(=S)N1CCN(c2cccc(C)c2C)CC1 | -7%
CC(C)OC(=O)CC(=O)CSc1nc2c(c(-c3cccs3)c1C#N)CCC2 | -5%
CCOC(=O)c1c(NC(=O)C(C)NCc2ccco2)sc2c1CCC(C)C2 (stereo unspecified) | ?
ONC(=Nc1ccccc1)C(=Nc1ccccc1)NO | -7%
O=C(COc1ccc(-c2ccccc2)cc1)N/N=C/c1cc(O)ccc1Br | -13%
CCOC(=O)C1=C(C)OC(N)=C(C#N)C1c1cc2cc(C)ccc2nc1N1CCCCC1 (stereo unspecified) | ?
COc1cccc(NC(=S)NN2C(C)CCCC2C)c1 (stereo unspecified) | -2%
Cc1ccc(-c2nc(=S)c3c(n2Cc2ccco2)CC(C)(C)OC3)cc1 | -3%
Cc1ccc(C)c(NC(=S)NNC(=O)c2ccco2)c1 | -20%
O=C(Cn1cnc2scc(-c3ccc(F)cc3)c2c1=O)N1CCOCC1 | 3%
CN(C)CCNC(=S)Nc1ccccc1Cl | -9%
CCOC(=O)C1=C(c2ccc(OC)cc2)C(=O)c2ccccc2C1=O | -7%
Cc1cccc(C(=O)O)c1C[C@H]1NCC[C@H]2c3ccccc3N[C@@H]12 | ?
CN1[C@H](Cc2ccccc2)C=C[C@]1(C)C(=O)NCC1CC1 | -19%

# Three entries already listed, arranged by length of the SMILES, ascending.
Compound | HPGD block
ONC(=Nc1ccccc1)C(=Nc1ccccc1)NO | -7%
Cc1ccc(N2C(=O)CC(NCc3ccc4c(c3)OCO4)C2=O)cc1Cl (stereo unspecified) | -5%
CCOC(=O)c1cccc(S(=O)(=O)N(CCO)Cc2cc3cc(OC)ccc3[nH]c2=O)c1 | -20%

# Screening data deposited in PubChem by National Center for Advancing Translational Sciences (NCATS).
